Compound activity as filed in PubChem.
RN4220 kill = kills Staphylococcus aureus RN4220 | S. aureus RN4220 growth, OD600, 16 h | inhibition, % (no concentration beside the values) | 330,000 tested, 0.33% active | AID 1259311;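 active = z-score of -3 or lower and OD600 up to 0.18 on both plates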;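 also: plate controls were untreated cells for no effect and reference antibiotic for full effect; stock transfer was 100 nL into about 80 µL; one replicate is shown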
Mtb hypoxia rep = inhibitors of hypoxia-regulated fluorescent reporter in Mycobacterium tuberculosis; M. tuberculosis hypoxia-regulated fluorescent reporter, fluorescence; fluorescence inhibition, % (no concentration beside the values); 300,000 tested, 0.1% active;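 active = 35 to 45% if threefold the growth effect, above 45% if 1.5-fold the growth effect; inactive = the rest, general growth blockers included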;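 also: wells of about 50 µL received 100 nL stock; 0% = vehicle wells and 100% = reference inhibitor wells; whole bacteria with a GFP reporter of the hypoxia response; strong numbers were not always called active; many hits fall short of the cut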
BJeLR lethal = kills HRASV12-expressing BJeLR cells; BJeLR (HRASV12) viability, CellTiter-Glo ATP luminescence, 48 h; reference of the scale not given here; 300,000 tested, 0.17% active; inhibition, % (no concentration beside the values);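 active = replicate mean above 50%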;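 also: 50 nL library stock added to about 25 µL; numbers are from one replicate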
PrP UTR inh = inhibition of PrP 5' UTR reporter expression | cell-based PrP 5' UTR mRNA reporter, plate reader | inhibition, % (test concentration not listed) | 340,000 tested, 0.35% active | AID 488862;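 active = every replicate at 50% or more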;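 also: 0 = median of the neutral control wells; tested in H4 reporter cells; numbers are from one replicate; inactives centre near -14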
ugtP null kill = kills S. aureus RN4220 lacking UgtP. S. aureus RN4220 ugtP deletion, OD600 growth, 16 h; some inactives read as strong as hits. growth inhibition, % (no concentration beside the values). 330,000 tested, 0.54% active. AID 1259309;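 active = z-score under -3 and OD600 up to 0.15 on both plates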;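 also: plate controls were untreated wells for no effect and antibiotic for full effect; wells of about 80 µL received 100 nL stock; the first replicate is given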
Bead autofluor = compound fluorescence in toxin protease inhibitor counterscreen. compound autofluorescence counterscreen, microsphere flow cytometry; stronger effect = higher value. fluorescence intensity (concentration not given with the values). 360,000 tested, 3.1% active;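 active = at least 3 SD above the mean of all compounds, about 16000 in these data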;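 also: 100 nL of 1 mM stock went into each well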
Mtb hypoxia rep growth = recorded beside Mtb hypoxia rep, whose call it bears; growth inhibition, %; measured here: M. tuberculosis growth (absorbance);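 0% = vehicle and 100% = reference antibiotic; read after six days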
Starred values were filed as active, the others as inactive; . = not tested or not shown.

Structure	RN4220 kill	Mtb hypoxia rep	Mtb hypoxia rep growth	BJeLR lethal	PrP UTR inh	ugtP null kill	Bead autofluor
COc1ccc(CCNC(=O)CSc2nncn2N)cc1OC	1.9	11.9	6.0	9.1	-31.1	13.3	7993
O=C(NC(CO)c1ccccc1)c1ccco1 (stereo unspecified)	-0.2	.	.	4.8	-17.7	6.8	2437
Cc1ccc(C)c(NC(=O)CN(C)C(=O)c2ccc(-c3cccc(C(F)(F)F)c3)o2)c1	.	.	.	0.7	-21.8	.	6012
O=[N+]([O-])c1ccc(S(=O)(=O)N(CC(O)CN2CCCCC2)c2ccccc2)cc1 (stereo unspecified)	4.8	11.8	10.5	-6.6	-14.3	-0.5	3552
CCN(CC)CC#CCC(C)(c1ccccc1)c1ccccc1	4.7	9.5	7.7	17.9	-25.6	1.2	11523
COCCn1nnnc1CN1CCC(NC(=O)Nc2cccc(OC)c2)CC1	1.5	-1.0	0.3	-4.8	-16.7	1.4	24633*
CCCCN(Cc1ccccc1)S(=O)(=O)c1ccc2c(c1)n(C)c(=O)c(=O)n2C	4.0	-1.1	-4.9	-5.6	8.5	8.7	4656
CC1(C)Cc2ccccc2C(NNC(=O)c2cccnc2)=N1	9.0	5.3	-17.3	-1.5	-13.0	3.8	3112
COCCc1ncc(CN2CCC(C(=O)Nc3ccc(-n4cccn4)cc3)CC2)cn1	3.5	9.4	8.3	6.2	-15.2	-0.2	5789
OCCNc1nc2ccccc2nc1NCCO	3.5	9.5	-3.1	-1.1	-15.1	-3.8	3415
COc1ccc(OC)c(/C=N/NC(=O)Cn2ccnc2C)c1	.	.	.	5.6	-14.2	.	4377
O=C(NN=Cc1ccc(-c2ccc(Cl)c(C(=O)O)c2)o1)c1cc2c(ccc3ccccc32)o1	7.5	5.5	-1.2	.	.	4.5	.

The listing continues:
Structure	RN4220 kill	Mtb hypoxia rep	Mtb hypoxia rep growth	BJeLR lethal	PrP UTR inh	ugtP null kill	Bead autofluor
O=C(CN1CCN(C(c2ccccc2)c2ccccc2)CC1)N1CCOCC1	6.3	0.8	3.6	2.1	-15.2	10.2	9567
O=C(Nc1nnc(CCN2CCCCC2)s1)c1ccccc1Cl	-3.8	14.1	0.2	-13.3	-45.2	4.2	4267
CN(C)C=NNC(=O)c1ccc(Cl)cc1	-2.2	1.0	7.4	.	.	-0.9	.
O=S(=O)(NC1=NCCCCC1)c1ccc(Cl)cc1Cl	1.3	8.7	9.1	.	-11.2	-0.3	6319
CN1CCN(c2nc(Nc3ccc(O)cc3)nc3ccccc23)CC1	-2.2	4.4	-6.7	15.7	-20.4	-7.1	4231
CO[C@@]1(NC(=O)C2SC(=C(C(N)=O)C(=O)O)S2)C(=O)N2C(C(=O)O)=C(CSc3nnnn3C)CSC21 (stereo partly specified)	100.4*	4.2	5.4	.	.	100.3*	.
O=C(O)c1ccc(-c2ccccc2)[nH]c1=O	7.9	11.7	8.5	3.8	-12.6	4.2	4425
CCOc1ccc(NC(=S)N2CCCCCC2)cc1	9.4	2.2	5.5	-3.6	-18.1	5.6	4123
CC(C)[C@@H](C(=O)NCc1ccco1)N1C(=O)N2CCc3c([nH]c4ccccc34)[C@@]2(C)C1=O	1.4	.	.	8.3	-15.8	0.6	5090
Cc1noc(C)c1S(=O)(=O)NC1CCN(Cc2ccccc2)CC1	-7.7	14.0	9.9	-0.9	-4.0	-0.5	9314
Cc1ccc(-c2noc(-c3ccccc3C(=O)NCc3ccco3)n2)cc1	6.2	2.2	12.1	-5.9	-27.4	1.3	6024
O=C(CSc1ncnc2ccccc12)NCCCO	-1.6	.	.	3.9	-5.4	4.1	2121

Next section
Structure	RN4220 kill	Mtb hypoxia rep	Mtb hypoxia rep growth	BJeLR lethal	PrP UTR inh	ugtP null kill	Bead autofluor
CCOc1ccc(C=NN2CCN(Cc3ccccc3)CC2)cc1	-1.4	-4.3	-0.6	.	.	11.1	.
NC(=O)c1ccccc1NC(=O)CSc1nc2c(c(=O)[nH]1)CCCC2	0.6	-18.5	-3.8	3.0	-3.3	2.7	3455
Cn1c(=O)c2c(ncn2CCOc2ccc(F)cc2)n(C)c1=O	-1.0	-3.1	2.6	3.4	-13.6	-0.2	5726
COc1ccc(C(=O)CSc2ccc(-c3ccc(C)cc3)nn2)cc1	5.8	2.0	5.2	-8.7	-15.7	1.6	8707
COc1ccc(NC(=O)Nc2cccc3c2O[C@H](CN(C)C(=O)Nc2ccc(OC)cc2)[C@@H](C)CN([C@H](C)CO)C3=O)cc1	-16.0	10.1	5.2	.	-9.4	-0.5	4043
O=C(NCCCl)Nc1cc([N+](=O)[O-])ccc1Cl	3.2	4.2	5.9	7.8	7.1	10.0	4052
CNC(=O)c1nnn(Cc2ccccc2)c1NC(C)=O	5.5	7.6	10.9	12.8	-20.4	10.7	7693
Cc1ccc(NC(=O)COC(=O)[C@H](C)N2C(=O)C3CC=CCC3C2=O)cc1S(=O)(=O)N(C)C (stereo partly specified)	5.5	4.9	2.0	26.6	-15.9	2.5	4009
Cc1ccc(N=Nc2ccc(O)c(P(=O)(c3ccccc3)c3ccccc3)c2)cc1	-5.3	4.7	0.2	-0.7	2.5	-3.5	4686
CCN1CCN(C(=O)c2cccc(OC3CCN(S(=O)(=O)N(C)C)CC3)c2)CC1	3.8	7.1	-16.5	-4.2	-42.0	7.5	6562
CCOC(=O)C1=C(N)c2ccccc2CC1C(C)C (stereo unspecified)	-1.3	.	.	-2.6	-17.0	46.0	2196

Quoted at random: three compounds from above.
Structure	RN4220 kill	Mtb hypoxia rep	Mtb hypoxia rep growth	BJeLR lethal	PrP UTR inh	ugtP null kill	Bead autofluor
Cc1ccc(NC(=O)COC(=O)[C@H](C)N2C(=O)C3CC=CCC3C2=O)cc1S(=O)(=O)N(C)C (stereo partly specified)	5.5	4.9	2.0	26.6	-15.9	2.5	4009
NC(=O)c1ccccc1NC(=O)CSc1nc2c(c(=O)[nH]1)CCCC2	0.6	-18.5	-3.8	3.0	-3.3	2.7	3455
CCOC(=O)C1=C(N)c2ccccc2CC1C(C)C (stereo unspecified)	-1.3	.	.	-2.6	-17.0	46.0	2196

A second format for part of the listing above.
O=[N+]([O-])c1ccc(S(=O)(=O)N(CC(O)CN2CCCCC2)c2ccccc2)cc1 (stereo unspecified)
  RN4220 kill: 4.8	Mtb hypoxia rep: 11.8	Mtb hypoxia rep growth: 10.5	BJeLR lethal: -6.6	PrP UTR inh: -14.3	ugtP null kill: -0.5	Bead autofluor: 3552

CCN(CC)CC#CCC(C)(c1ccccc1)c1ccccc1
  RN4220 kill: 4.7	Mtb hypoxia rep: 9.5	Mtb hypoxia rep growth: 7.7	BJeLR lethal: 17.9	PrP UTR inh: -25.6	ugtP null kill: 1.2	Bead autofluor: 11523

COCCn1nnnc1CN1CCC(NC(=O)Nc2cccc(OC)c2)CC1
  RN4220 kill: 1.5	Mtb hypoxia rep: -1.0	Mtb hypoxia rep growth: 0.3	BJeLR lethal: -4.8	PrP UTR inh: -16.7	ugtP null kill: 1.4	Bead autofluor: 24633*

CCCCN(Cc1ccccc1)S(=O)(=O)c1ccc2c(c1)n(C)c(=O)c(=O)n2C
  RN4220 kill: 4.0	Mtb hypoxia rep: -1.1	Mtb hypoxia rep growth: -4.9	BJeLR lethal: -5.6	PrP UTR inh: 8.5	ugtP null kill: 8.7	Bead autofluor: 4656
